# PV pol inh = poliovirus RNA polymerase inhibition. % elongation, % (compound at 16.7 µg/mL). poliovirus polymerase elongation, fluorescence polarization; active compounds read low. 150,000 tested, 0.66% active. P03300. AID 588519; in the data active means % elongation below about 90%; further: some results filed as inactive read as strong as hits
# Target sequence (P03300 1749-2209 limits assumed): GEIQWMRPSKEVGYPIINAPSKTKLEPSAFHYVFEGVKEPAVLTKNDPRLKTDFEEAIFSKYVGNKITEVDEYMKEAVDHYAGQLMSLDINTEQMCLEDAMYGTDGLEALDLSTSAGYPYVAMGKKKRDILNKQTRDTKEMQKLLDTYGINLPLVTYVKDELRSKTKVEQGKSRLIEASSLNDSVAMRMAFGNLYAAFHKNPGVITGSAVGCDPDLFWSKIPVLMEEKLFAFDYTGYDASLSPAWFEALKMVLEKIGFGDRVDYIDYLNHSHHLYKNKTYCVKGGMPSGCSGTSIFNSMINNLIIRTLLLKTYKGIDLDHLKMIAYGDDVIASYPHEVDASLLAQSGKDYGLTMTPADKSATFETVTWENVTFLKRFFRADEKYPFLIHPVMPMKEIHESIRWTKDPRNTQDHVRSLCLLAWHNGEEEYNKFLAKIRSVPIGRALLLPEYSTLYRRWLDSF
# PV pol inh intensity = further read-out of PV pol inh, marked with its call; % elongation; measured here: total intensity read-out; formula for this scale not given here;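 total fluorescence in place of polarization; lower means less elongation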
# * hit, by the source's call. A portion of the library; count on the stated rates, not on these rows.
SMILES,PV pol inh,PV pol inh intensity
CCOC(=O)c1cccc(NC(=O)C2CCN(S(=O)(=O)c3cn(C)cn3)CC2)c1,104,115
Cc1ccc(CNC(=O)Cc2ccc(NC(=O)N3CCSc4ncccc43)cc2)cc1,107,109
Cc1ccccc1OCc1nnc(SCc2cc(=O)c3cccc(F)c3[nH]2)n1C,105,107
O=C(CC1NCCNC1=O)Nc1ccccc1F (stereo not given),101,102
COc1cc2ccccc2cc1C(=O)N1CCN(c2nc3ccc(F)cc3s2)CC1,109,113
Cc1c(C(=O)Nc2ccc(F)cc2F)nnn1-c1ccccc1Br,116,119
CCOc1ccccc1NC(=O)c1c(NC(=O)c2ccccc2)sc2c1CCCC2,106,110
COc1ccccc1N1CCN(S(=O)(=O)c2c(C)sc3ncn(CC(=O)N(C)c4ccc(Cl)cc4)c(=O)c23)CC1,104,109
COc1ccc(CNC(=O)COCc2cc(-c3cccs3)on2)cc1,109,107
CCCc1nc2ccccc2n2c(-c3ccc(C)cc3)c3c(=O)n(C)c(=O)n(C)c3c12,103,110
COc1ccc(-c2cc3nc(N)cc(=O)n3[nH]2)cc1,104,103
Cc1ccc(C)c(NC(=O)Cn2cc(C(=O)C3CCCCC3)c3ccccc32)c1,106,110
Cc1ccc(-c2nc3sc(CCNC(=O)c4ccco4)c(C)n3n2)cc1,107,101
COc1ccc(CNC(=O)c2ccc(CS(=O)(=O)c3ccc(OC)cc3)o2)cc1,102,105
Cc1ccc(-n2ncc(C(=O)Nc3ccc4c(c3)OCCO4)c2C2CCN(C(=O)OC(C)(C)C)CC2)cc1,101,95

# Compound profiles, from the list above. Values in the order: PV pol inh, PV pol inh intensity
# Cc1ccc(C)c(NC(=O)Cn2cc(C(=O)C3CCCCC3)c3ccccc32)c1 reads 106, 110
# COc1ccc(-c2cc3nc(N)cc(=O)n3[nH]2)cc1 reads 104, 103
# COc1cc2ccccc2cc1C(=O)N1CCN(c2nc3ccc(F)cc3s2)CC1 reads 109, 113
# Cc1ccccc1OCc1nnc(SCc2cc(=O)c3cccc(F)c3[nH]2)n1C reads 105, 107
# Cc1ccc(CNC(=O)Cc2ccc(NC(=O)N3CCSc4ncccc43)cc2)cc1 reads 107, 109

# (list continues)
SMILES,PV pol inh,PV pol inh intensity
COc1cc(NC(=O)c2cc(-c3cccs3)on2)c(OC)cc1Cl,107,108
Cc1ccc(NC(=O)CCC(=O)N2CCSc3ccccc32)cc1,110,111
CCOc1ccc(C(=O)N2CCC(c3ccncc3)CC2)cc1,107,109
COc1ccc(Cn2c(C(=O)O)c(CNCc3ccc(OC)cc3OC)c3ccc(C)cc32)cc1,109,108
N#Cc1cc2c(=O)n3ccccc3nc2n(-c2nnc(SCc3ccccc3)s2)c1=O,101,119
Cc1ccccc1Nc1c(-c2cccs2)nc2cccc(C)n12,105,106
COc1ccc(-n2nc3ccc(NC(=O)c4c(OC)cccc4OC)cc3n2)cc1,107,108
CCc1cccc2sc(N3CCN(C(=O)c4cc5ccccc5cc4OC)CC3)nc12,103,98
COc1ccc(-c2noc(-c3cc(C(C)C)[nH]n3)n2)cc1,100,103
Cc1cc(F)ccc1NC(=O)CCS(=O)(=O)c1cc2c(cc1C)NC(=O)CO2,102,107
Cc1ccccc1OCC(=O)Nc1ccc(C(=O)OCc2cc(=O)n3ccsc3n2)cc1,99,97
COCCNc1oc(-c2ccc(COc3ccc(OC)cc3)o2)nc1C#N,100,103
CCOC(=O)N1CCc2c(sc(NCc3ccc(N(CC)CC)cc3)c2C(=O)Nc2cc(OC)ccc2OC)C1,112,118
O=C(Nc1ccc(F)cc1F)c1noc2c1CCc1ccccc1-2,106,109
Cc1ccc2c(c1)c1c(c(=O)n(-c3ccccc3C)c(=O)n1CC(=O)N1CCCC1)n2C,110,113
CC1=C(C(=O)Nc2ccccc2Cl)C(c2cccc(O)c2)n2ncnc2N1 (stereo not given),111,101
CCOc1cc(Cl)c(S(=O)(=O)n2ccnc2)cc1Cl,109,111
Cc1ccc(OCc2nc3ccccc3n2CCOc2ccc(Cl)cc2)cc1,108,107
O=C(CSc1nc2c([nH]c3ccccc32)c(=O)n1-c1ccccc1)N1CCOCC1,108,105
Cc1ccc(C)c(NC(=O)c2cc(=O)c3cc(C)cc(C)c3o2)c1,109,102
COCCN1C(=O)c2[nH]nc(-c3ccccc3O)c2C1c1ccc(Cl)c(Cl)c1 (stereo not given),112,100
CCN1C(=O)c2ccccc2Sc2ccc(NC(=O)Nc3cccc([N+](=O)[O-])c3C)cc21,102,97
COc1ccc(C(=O)N2CCN(c3nc4c(OC)cccc4s3)CC2)cc1OC,101,106
CCc1ccc(-c2ccc(C(=O)Oc3ccc(Br)cc3)cc2)nc1,102,106
COc1ccc(CCNC(=O)c2ccc3c(c2)sc2nc(-c4ccccc4)cn23)cc1OC,108,104
CCOc1ccc(-n2c(/C=C/c3cccc(F)c3)nc3cc(OC)c(OC)cc3c2=O)cc1,112,112
O=C(Nc1ccc2oc(-c3ccc4ccccc4c3)nc2c1)c1ccc(Cl)c(Cl)c1,101,101
COc1cc(OC)c(NC(=O)Cn2cnc3c(nc4n3CCCCC4)c2=O)cc1Cl,101,106
CCN(C(=O)Cn1c(C(=O)OC)cc2sccc21)c1cccc(C)c1,105,112
COC(=O)c1ccccc1NC(=O)Cc1noc2ccc(C)cc12,104,103

# Looked up by structure from the entries so far (4):
SMILES,PV pol inh,PV pol inh intensity
CCN(C(=O)Cn1c(C(=O)OC)cc2sccc21)c1cccc(C)c1,105,112
O=C(Nc1ccc2oc(-c3ccc4ccccc4c3)nc2c1)c1ccc(Cl)c(Cl)c1,101,101
CCN1C(=O)c2ccccc2Sc2ccc(NC(=O)Nc3cccc([N+](=O)[O-])c3C)cc21,102,97
CC1=C(C(=O)Nc2ccccc2Cl)C(c2cccc(O)c2)n2ncnc2N1 (stereo not given),111,101

# (further entries)
SMILES,PV pol inh,PV pol inh intensity
COC(=O)c1ccc(NC(=O)CSc2nc3cc4ccccc4cc3[nH]2)cc1,104,111
CC(C)(C)OC(=O)N1CCC(c2c(C(=O)NCc3ccco3)cnn2-c2ccc(F)cc2)CC1,100,105
O=C(Nc1ccc2c(c1)OCO2)c1cc(-c2ccc(Cl)cc2)on1,107,113
Cc1ccc(NC(=O)C(Cc2c[nH]c3ccccc23)NC(=O)OC(C)(C)C)c(C)c1 (stereo not given),109,110
Cc1nc2ccccc2n1CCc1nc2c3ccccc3nc(SCC(=O)Nc3ccc(Br)cc3F)n2n1,110,113
Cc1cc(Nc2cc(F)ccc2C)nc(-n2nc(C)cc2C)n1,104,112
Cc1ccccc1OCC(=O)N1CCN(CCc2ccccn2)CC1,107,111
Cc1ccc(N2CC(c3nc4ccccc4n3CCC3CCCCC3)CC2=O)cc1 (stereo not given),112,118
CCCCOc1ccc(C(=O)Nc2ccc3c(c2)N(C(C)=O)CCC3)cc1,106,110
COc1cccc(-n2c(=O)c3c(C)c(C)sc3n(CC(=O)NCc3ccccc3)c2=O)c1,108,111
Cc1ccccc1Cn1cnc2c(oc3ccccc32)c1=O,107,109
COc1ccc(NS(=O)(=O)c2ccc3[nH]c4c(c3c2)CCCC4)c(OC)c1,107,109
CCCCN1C(C(=O)c2ccccc2)=C(OC(C)=O)c2ccccc2S1(=O)=O,108,111
O=C(Cn1cc(SCc2c(F)cccc2Cl)c2ccccc21)N1CCCC1,115,121
Cc1cc(Cl)ccc1NC(=O)Cc1ccc(NC(=O)N2CCCCc3ccccc32)cc1,107,106
CCc1ccc(NS(=O)(=O)c2ccc(-c3cc(C)no3)cc2)cc1,105,106
CN1C(=O)C(C)(C)c2cc(S(=O)(=O)NCc3ccc(C(=O)Nc4ccc(Cl)cc4)cc3)ccc21,113,115
O=C(NCc1ccc2c(c1)CCN2C(=O)c1ccc(F)cc1)c1cc2ccccc2[nH]1,113,111
Cc1ccc(NC(=O)CSc2nc3ccccc3c3nc(CCn4c(C)nc5ccccc54)nn23)cc1F,105,110
O=C(Cn1c(=O)n(-c2ccc(Cl)cc2)c(=O)c2c3c(sc21)CCCCC3)Nc1cccc(Cl)c1,107,111
O=C(Nc1ccc2nc(SCC(=O)N3CCOCC3)sc2c1)c1cccc(F)c1,114,107
COc1ccccc1C(=O)N1c2ncnn2C2(CCCCC2)[C@@H]2CCCC[C@@H]21,95,100
O=C(CSc1nc(=O)n(Cc2ccncc2)c2c1CCC2)Nc1ccc(F)cc1F,110,107
COc1ccc(C2C(C(=O)Nc3cccnc3)=C(C)Nc3nc(SCc4ccccc4)nn32)cc1 (stereo not given),106,108
CCc1cc(C(=O)Nc2cnn(Cc3ccc(F)cc3)c2)no1,105,108
COc1ccccc1CNC(=O)c1cnn(-c2ccc(F)cc2F)c1C1CCN(C(=O)OC(C)(C)C)CC1,109,112
CCC1CN(C(=O)Nc2ccccc2C(F)(F)F)c2ccccc2O1 (stereo not given),112,108
Cc1c(C)n(Cc2ccc(F)cc2)c2ccc(C(=O)N3CCN(c4ccc(Cl)cc4)CC3)cc12,108,111
O=C(c1ccc2c(c1)N(Cc1ccccc1F)C(=O)c1ccccc1S2(=O)=O)N1CCCCC1,103,110
Cc1cccc(C)c1Nc1c(-c2ccsc2)nc2ccccn12,107,107
CCOc1ccc(CCNC(=O)c2nn(C)c3c2CSc2ccc(C)cc2-3)cc1OCC,103,106
CCOC(=O)c1c(C)[nH]c(CCC(=O)Nc2ccc(C)c(F)c2)c1C,108,115
CSc1ccc(CCNC(=O)c2ccc(CS(=O)Cc3ccc(Cl)cc3)o2)cc1 (stereo not given),103,110
Cc1ccc2c(=O)cc(C(=O)Nc3c(C)n(C)n(-c4ccccc4)c3=O)oc2c1C,113,104
CCOc1ccc(CN2CCc3nc(Nc4ccc5c(c4)OCCO5)ncc3C2)cc1,107,113
CCCCN(C)C(=O)C1CCCN(c2ncnc3onc(C)c23)C1 (stereo not given),111,103
Cc1nc2sccn2c(=O)c1S(=O)(=O)Nc1cc(C(F)(F)F)ccc1Cl,102,107
COc1ccc(CC(=O)NCc2nc3cccnc3n2Cc2ccc(C)cc2)cc1,113,124
COc1cc(Cl)c(C)cc1NC(=O)C1CCCN(c2ncnc3onc(-c4ccc(F)cc4)c23)C1 (stereo not given),105,106
COc1ccc(S(=O)(=O)c2cn(Cc3ccccc3)c3cc(N4CCCC4)c(F)cc3c2=O)cc1,111,107
CCOc1ccccc1NC(=O)C1CCN(S(=O)(=O)c2ccc3c(c2)CCCN3C(C)=O)CC1,107,113
Cn1cc(C(=O)N2CCN(c3cccc(C(F)(F)F)c3)CC2)c2c3ccccc3n(C)c2c1=O,108,112
COc1ccc(CNC(=O)Cn2c(SCC(=O)N(C)c3ccccc3)nc3ccccc32)cc1,111,109
O=S(=O)(c1ccc(Cl)cc1)c1nc(-c2cccs2)oc1SCc1ccc(F)cc1,109,113
Cc1ccccc1OCc1ccc(-c2nc(C#N)c(NCc3cccnc3)o2)o1,106,111
CC(C)OCCCNC(=O)c1ccc(Cn2c(=O)c3cccn3c3cccnc32)cc1,110,102
Cc1ccccc1CN1C(=O)c2ccccc2Sc2ccc(C(=O)N3CCOCC3)cc21,116,108

# By substructure, those above containing a furan ring, fused or not (7)
SMILES,PV pol inh,PV pol inh intensity
Cc1ccc(-c2nc3sc(CCNC(=O)c4ccco4)c(C)n3n2)cc1,107,101
COc1ccc(CNC(=O)c2ccc(CS(=O)(=O)c3ccc(OC)cc3)o2)cc1,102,105
COCCNc1oc(-c2ccc(COc3ccc(OC)cc3)o2)nc1C#N,100,103
CC(C)(C)OC(=O)N1CCC(c2c(C(=O)NCc3ccco3)cnn2-c2ccc(F)cc2)CC1,100,105
Cc1ccccc1Cn1cnc2c(oc3ccccc32)c1=O,107,109
CSc1ccc(CCNC(=O)c2ccc(CS(=O)Cc3ccc(Cl)cc3)o2)cc1 (stereo not given),103,110
Cc1ccccc1OCc1ccc(-c2nc(C#N)c(NCc3cccnc3)o2)o1,106,111

# Screening data (PubChem)
